# VDR inhibitor = Inhibitors of the vitamin D receptor (VDR): qHTS; AID 504847, 2011; Potency, µM, for the others: max response, negative = inhibition, most hits filed as inhibitors; 0.93% of 400,000 active; VDR-SRC2-3 peptide fluorescence polarization, 2 h; active = well fitted inhibition curve with a large enough effect; inconclusive = small, poorly fitted or top-dose-only effect, or another doubt; inactive = no such curve, though single readings can be large or run the other way; note: series mostly up to about 120 µM
# Target sequence (P11473 whole entry, looked up): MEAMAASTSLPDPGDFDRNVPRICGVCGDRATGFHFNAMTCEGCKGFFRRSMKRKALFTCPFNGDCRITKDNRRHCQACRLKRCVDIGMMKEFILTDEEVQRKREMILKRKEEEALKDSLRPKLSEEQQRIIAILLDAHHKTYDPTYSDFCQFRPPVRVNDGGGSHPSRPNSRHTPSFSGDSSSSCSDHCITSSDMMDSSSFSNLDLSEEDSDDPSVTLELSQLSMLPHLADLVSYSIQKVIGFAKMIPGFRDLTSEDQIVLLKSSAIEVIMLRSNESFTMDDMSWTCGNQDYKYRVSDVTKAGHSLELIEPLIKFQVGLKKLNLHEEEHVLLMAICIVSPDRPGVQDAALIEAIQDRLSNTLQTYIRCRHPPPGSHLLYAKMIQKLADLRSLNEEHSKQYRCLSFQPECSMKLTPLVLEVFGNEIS
#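 Fluorescence polarization assay of small-molecule disruption of VDR binding to coregulator peptide SRC2-3. Compounds and controls pin-transferred, then read after 2 h incubation at ambient room temperature.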
# The depositor's hits bear a star; ? = inconclusive; & = joins results of further samples; [ ] = another dose, or the depositor's remark. % is set by controls: 0 for no effect and ±100 for the full control effect; potency is the fitted concentration of half-maximal effect. Not all compounds are listed. The share of hits here may be higher or lower than overall.
VDR inhibitor	structure
6%	O=C(CCCN1C(=O)c2cccnc2Oc2ccc(Cl)cc21)NCc1ccc(F)cc1
0%	COc1ccc2c(c1)OCc1c-2oc2cc(OC)ccc12
0%	CC1CCCC(C)N1C(=O)COC(=O)c1cc(=O)[nH]c2ccccc12 (stereo not drawn)
-12%	CCCc1cc(=O)oc2c(C)c(OCC(=O)Nc3cccnc3)ccc12
-3%	Cc1ccc(-n2ccnc(NCCc3ccc(S(N)(=O)=O)cc3)c2=O)cc1C
?	O=C(/C=C/c1ccccc1Br)c1ccc2c(c1)OCO2
-15%&-2%	COCCCCCCCCCCCC(=O)O
-4%	CNc1ccc(C(=O)OCC(=O)NC(=O)NC2CCCCC2)cc1[N+](=O)[O-]
0%	COc1ccccc1OCCCc1c(C)n[nH]c1C
-3%	CC1(C)CC(=O)C=C(Nc2ccc(O)c(C(=O)O)c2)C1
-3%	Cc1cccc(-c2nc(CN3CCCC(C(=O)NC4CCCC4)C3)c(C)o2)c1 (stereo not drawn)
-12%	O=C(NCc1ccc(Cl)cc1)c1cc(=O)nc2sc(-c3ccccc3)nn12
-1%	CCN1CCN(Cc2nc3c(c(=O)n(C)c(=O)n3C)n2C(C)C(C)=O)CC1 (stereo not drawn)
-9%	COc1cc(O)c(CCC(=O)c2cc(OC)c(OC)c(OC)c2)c(OC)c1
?	CC(C(=O)OCC(=O)c1ccc([N+](=O)[O-])cc1)N1C(=O)C2C3CCC(C3)C2C1=O (stereo not drawn)
-2%	O=C(Cc1ccc(Br)cc1)NC1CCN(Cc2ccccc2)CC1
4%	O=CN1CCN(C(=S)Nc2ccc(OC(F)F)cc2)CC1
-7%	CC1CCN(CC(=O)Nc2ccccc2C(=O)c2ccccc2)CC1
-24%	CC(NC(=O)Cc1cccs1)C(c1cccs1)N1CCOCC1 (stereo not drawn)
3%	CCn1nnc(NC(=O)COc2ccc(C3CCCCC3)cc2)n1
3%	CCN1c2ccccc2-c2nc3ccccc3n2C1c1cccs1 (stereo not drawn)
3%	COc1ccccc1Nc1nc(N)nc(CN2CCN(Cc3ccc4c(c3)OCO4)CC2)n1
-10%	COc1ccccc1NC(=O)CN1CCSc2ccccc21
7%	O=C(c1cc(F)ccc1F)N1CCC(N2CCC(C(=O)N3CCCC3)CC2)CC1
20µM*	O=C(/C=C\c1ccccc1)Nc1ccc(NC(=O)c2ccco2)cc1
?	O=C(O)CCCN1C(=O)C(=O)/C(=C(/O)c2ccccc2)C1/C=C/c1ccccc1 (stereo not drawn)
-1%	CC(C)(CC(=O)O)CC(=O)NCc1c(Cl)cccc1Oc1ccccc1
-1%	CS(=O)(=O)N(CC(=O)NC1CCCCC1)Cc1ccc(Cl)cc1
6%&-20%	CC[C@@H]1C(c2ccccc2)=NN(c2ccccc2)[C@H]1C(=O)N1CCOC1=O
?	O=C(c1cc(F)ccc1F)C1CCCN(C(=O)c2ccc(F)cc2Cl)C1 (stereo not drawn)
-16%&-14%	COc1cc2oc(=O)cc(-c3ccc(-c4ccc(OC(F)(F)F)cc4)cc3)c2c(OC)c1OC
-11%	C[C@@H]1C=C(C(=O)NC2CC2)O[C@H](OCc2ccc(CO)cc2)C1
-1%	Cc1nn(Cc2ccc(Cl)c(Cl)c2)c(C)c1NC(=O)c1cn(-c2ccccc2)nc1-c1ccccc1
-5%	COc1ccc(C2NN=C(c3c[nH]c4ccccc34)C2O)cc1 (stereo not drawn)
-11%	CC1CCN(c2ccc(NC(=O)c3ccc(Br)o3)cc2)CC1
11%	CC(C(=O)NCCc1nc2ccccc2[nH]1)n1cc([N+](=O)[O-])cn1 (stereo not drawn)
-16%	C[C@H](O)[C@@H]1C(=O)N2CCc3ccc(N4CCOCC4)cc3[C@@H]2C[C@@H]1N(C)C(=O)Nc1ccccc1
-6%	Cc1cc(NC(=O)NC(=O)c2ccccc2F)no1
-1%	CCOC(=O)c1c(NC(=O)c2c(C(=O)O)cccc2[N+](=O)[O-])sc(C)c1C
5%	O=S(=O)(c1ccc(S(=O)(=O)N(Cc2ccccc2)Cc2ccco2)cc1)N1CCCC1
12%	COC(=O)C1=C(O)/C(=C\c2ccc(OCC(=O)Nc3ccc(OC)cc3)cc2)N=C1C
-10%	Cc1ccc(C(=O)NC(C)c2ccc(C)c(C)c2)s1 (stereo not drawn)
-5%	CCOCCn1c(COc2ccc(C)cc2)nc2ccccc21
12%	O=C(N/N=C/c1cc(Br)cc(Cl)c1O)c1ccc2c(c1)OCO2
15%	COc1cc(-c2noc(C)c2C(=O)NCCO)cc(OC)c1OC
3%	COC(=O)c1cccc(Nc2ncnc3sccc23)c1
-18%	COc1cc(-c2nnc(COC(=O)c3ccc(C)o3)o2)cc(OC)c1OC
0%	Cc1ccc(-c2csc(Cc3nc(-c4ccc5c(c4)CCC(=O)N5)cs3)n2)cc1
-8%	O=C(NCCOc1cccc2cccnc12)c1cccs1
4%	C/C(=N\NC(=O)c1ccc(F)cc1)c1ccc(NC(=O)Cc2ccccc2)cc1
14%	CCC(C)N1CCCC1C(=O)Nc1c(C)cc(C)cc1C (stereo not drawn)
-5%	COC(=O)CCC(=O)OC1(C)C(=O)C=C2C=C(C3CC3)N(C3CCCCC3)C=C2C1=O (stereo not drawn)
2%	COC(=O)C1=C(SC)N(c2ccc(OC)cc2)C(c2ccccc2)CC1=O (stereo not drawn)
-9%	COc1ccc(S(=O)(=O)NCC2CCCN(Cc3cccc(C(C)=O)c3)C2)cc1 (stereo not drawn)
-5%	CCC(c1nnc(SCC(=O)Nc2ccc(C(N)=O)cc2)n1Cc1ccccc1)N(C)C (stereo not drawn)
24%	COc1oc(-c2ccccc2)nc1C(F)(F)F
-6%	CC(C)C(NC(=O)c1ccco1)C(=O)OCC(=O)c1ccccc1 (stereo not drawn)
-13%	COc1cc(CC(=O)NNC(=O)c2cc(C)oc2C)cc(OC)c1OC
-14%	O=C1CC(c2nnc(Cc3ccccc3Cl)o2)CN1c1ccccc1 (stereo not drawn)
1%	CCOC(=O)C(CCCOc1ccc(C)cc1)C(=O)OCC

# Other compounds.
VDR inhibitor	structure
-21%	O=C(Cn1cnc2ccccc2c1=O)Nc1ccc2c(c1)OCCO2
6%	COCCN(C(=O)Cc1cccs1)C(C(=O)NCc1ccc(OC)cc1)c1ccccc1 (stereo not drawn)
3%	CCC(C)Sc1nc2ccccc2n1CC(=O)O (stereo not drawn)
-2%	Cc1cccc(-n2cnc3cc(C(=O)NCc4ccccc4Cl)ccc32)c1
-1%	Cc1cccc(/C=N/NC(=O)Cn2nc(C)cc2C)n1
-8%	COC(=O)C(F)(F)Sc1c(C)[nH]c2ccccc12
12%	CC1CCCC(NC(=O)COC(=O)c2ccc3ccccc3n2)C1C (stereo not drawn)
-5%	CC(C)NC(=O)N(C)C[C@H]1Oc2c(NC(=O)c3ccc(-c4nccs4)cc3)cccc2C(=O)N([C@@H](C)CO)C[C@H]1C
-13%	CC(=O)c1ccc(C(=O)N2CCC(CO)(Cc3cccc(C(F)(F)F)c3)CC2)cc1
7%	CC(C)=CCc1c(O)cc(O)c2c(=O)c(O[C@@H]3O[C@@H](C)[C@H](O)[C@@H](O)[C@H]3O)c(-c3ccc(O)cc3)oc12
10%	CC(CN(C)Cc1ccccc1)OC(=O)c1ccccc1F (stereo not drawn)
0%	Cc1cccc(NC(=O)CSc2nnc(CCCCCNC(=O)OC(C)(C)C)o2)c1C
6%	O=C(NN=C1c2ccccc2-c2ccccc21)c1ccccn1
-12%	CC(=O)c1ccc(OCCCC(=O)NC(C)c2ccc(S(N)(=O)=O)cc2)cc1 (stereo not drawn)
18%	CC1CCCCC1NC(=O)c1cc2c(s1)CS(=O)(=O)C2 (stereo not drawn)
-4%	Cc1ccc2onc(CC(=O)Nc3cc(F)ccc3F)c2c1
2%	Cc1cc(=O)n2ncnc2n1COCCO
4%	CCS(=O)(=O)N1N=C(c2cccc(NS(C)(=O)=O)c2)CC1c1ccc(C)cc1 (stereo not drawn)
-2%	COc1cccc(C(=O)OCCCN(C)C)c1
?	Cc1ccc(S(=O)(=O)/N=C2\C=C(NS(=O)(=O)c3ccccc3)C(=O)c3ccccc32)cc1
5%	CCOc1ccccc1N1CC(c2nc3ccccc3n2CCCOc2ccc(OC)cc2)CC1=O (stereo not drawn)
9%	CC(=O)Nc1ccc(S(=O)(=O)N2CCCC2C(=O)O)cc1 (stereo not drawn)
-7%	CCN1C(=O)c2ccc(C(=O)Nc3cccc(C(=O)O)c3)cc2C1=O
58%[activator]	CCOC(=O)Cc1cc(=O)n2[nH]c(C)c(-c3ccccc3)c2n1
-1%	CC(NCc1ccc([N+](=O)[O-])cc1)C1COc2ccccc2O1 (stereo not drawn)
0%	O=c1sc2ccccc2n1CCOc1ccccc1
22%	CC(C)CCN1C(=O)c2ccc(C(=O)OCC(=O)N(CC(C)C)C3CCS(=O)(=O)C3)cc2C1=O (stereo not drawn)
?	O=C(c1cc(Cl)ccc1Cl)N1CCc2ccccc21
-8%	CC(C)(C)NC(=O)C(OC(=O)Cn1nnc(-c2ccc(F)cc2)n1)c1ccncc1 (stereo not drawn)
-5%	CN(C)CCCNC(=O)C1(O)c2cc(Br)ccc2NC(=O)N1c1ccc(Cl)cc1 (stereo not drawn)

# Part of the list above in order of SMILES length, falling:
VDR inhibitor	structure
7%	CC(C)=CCc1c(O)cc(O)c2c(=O)c(O[C@@H]3O[C@@H](C)[C@H](O)[C@@H](O)[C@H]3O)c(-c3ccc(O)cc3)oc12
-5%	CN(C)CCCNC(=O)C1(O)c2cc(Br)ccc2NC(=O)N1c1ccc(Cl)cc1 (stereo not drawn)
-12%	CC(=O)c1ccc(OCCCC(=O)NC(C)c2ccc(S(N)(=O)=O)cc2)cc1 (stereo not drawn)
-2%	Cc1cccc(-n2cnc3cc(C(=O)NCc4ccccc4Cl)ccc32)c1

# Pulled by compound from above, 2 records:
VDR inhibitor	structure
-18%	COc1cc(-c2nnc(COC(=O)c3ccc(C)o3)o2)cc(OC)c1OC
20µM*	O=C(/C=C\c1ccccc1)Nc1ccc(NC(=O)c2ccco2)cc1

# The listing picks up with the five entries that preceded the break.
VDR inhibitor	structure
0%	O=c1sc2ccccc2n1CCOc1ccccc1
22%	CC(C)CCN1C(=O)c2ccc(C(=O)OCC(=O)N(CC(C)C)C3CCS(=O)(=O)C3)cc2C1=O (stereo not drawn)
?	O=C(c1cc(Cl)ccc1Cl)N1CCc2ccccc21
-8%	CC(C)(C)NC(=O)C(OC(=O)Cn1nnc(-c2ccc(F)cc2)n1)c1ccncc1 (stereo not drawn)
-5%	CN(C)CCCNC(=O)C1(O)c2cc(Br)ccc2NC(=O)N1c1ccc(Cl)cc1 (stereo not drawn)
10%	COC(=O)c1ccc(NC(=O)C2CCN(c3ncnc4c3nc3n4CCCCC3)CC2)cc1
-13%	COC(=O)CSc1nc2cc3c(cc2cc1C#N)OCO3
-21%	Cc1ccccc1NC(=O)CN1C(=S)NC(C)(C)CC1C (stereo not drawn)
19%	Nc1nnc(SCC(=O)c2ccc3ccccc3c2)s1
3%	CCOc1ccc2[nH]c(=O)c(CN(CCOC)C(=O)N3CCOCC3)cc2c1
36%[activator]	COc1ccc(S(=O)(=O)N2CCC(C(=O)N3CCc4ccccc4C3)CC2)cc1C
-8%	COC(=O)c1ccc(S(=O)(=O)NCc2cccc(OC)c2)n1C
8%	O=C(N/C(=C/c1ccccc1)C(=O)N1CCCCC1)c1ccc(Br)o1
-3%	O=C(CCNC(=O)C1CCN(S(=O)(=O)c2ccccc2)CC1)NC1CC1
-11%	N#C/C(=N\Nc1ccc(F)cc1)C(=N)N1CCCCCC1
11%	O=C(NCc1ccccc1)c1nn(-c2ccccc2)nc1CO
16%	Cc1[nH]c(=O)[nH]c(=O)c1S(=O)(=O)Nc1ccc(F)c(Cl)c1
-24%	Cc1cccc(CC(=O)N2CC(=O)Nc3ccc(F)cc3C2c2ccccc2)c1 (stereo not drawn)
1%	O=C(Oc1ccc2c(c1)OCO2)c1ccc(Br)c(S(=O)(=O)N2CCOCC2)c1
-1%	O=C(CC(c1ccccc1O)N1CCCCC1)N1CCCCC1 (stereo not drawn)
-4%	Cc1cc(NC(=O)c2cc(-c3ccccc3)on2)n(-c2ccccc2)n1
0%	Cc1ccc(CNC(=O)C2CCN(C(=O)c3ccc(-n4ccc5ccccc54)s3)CC2)cc1
3%	O=C1NC(=Nc2ccccc2)S/C1=C/c1cccnc1
-26%	CCCn1c(SCC(=O)Nc2cccnc2Cl)n[nH]c1=O
22%	Cc1ccc(C)c(NC(=O)C2(C)CC3c4ccccc4C2c2ccccc23)c1 (stereo not drawn)
-6%	CCOC(=O)C1=C(C)NC(=O)NC1c1cccnc1 (stereo not drawn)
-13%	CCO[C@H]1OC(C(=O)N2CCN(Cc3ccccc3)CC2)=C[C@@H](c2ccccc2)[C@@H]1CCCO
-3%	CCCC1CCC(C(=O)n2nc(N)c3cc4ccc(OC)cc4nc32)CC1 (stereo not drawn)
10%	O=C1/C(=C\c2ccc(O)cc2)SC(=S)N1c1cccnc1
-1%	Cc1ccc(-c2nc(CSCC(=O)NCCN3CCN(Cc4ccccc4)CC3)c(C)o2)cc1
-13%	CCOC(=O)c1c(N)n(-c2cccc(C)c2C)c2nc3ccccc3nc12
10%	Cc1ccc2c(c1)CCCN2C(=O)CCc1nc2ccccc2c(=O)[nH]1
-18%	O=C(CCSc1nnc(-c2ccccc2)o1)N1CCOCC1
-13%	Cc1[nH][nH]c(=O)c1N=Nc1ccc(Br)c(Cl)c1
-9%	COc1ccc(S(=O)(=O)NCCSc2nnnn2-c2ccccc2)cc1
2%	CC(C)c1ccccc1-n1c(SCC(=O)N2CCN(c3ccccc3)CC2)nnc1-c1cccnc1

# Screening data (PubChem BioAssay)
